From PubChem BioAssay
NOMO-1 viab: STK33 inhibitor candidate reducing NOMO-1 cell viability | NOMO-1 AML viability, CellTiter-Glo luminescence, 72 h | inhibition, % (test concentration not listed) | 37,000 tested, 7.5% active | AID 2330;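 active = most replicates above 80%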;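 also: wells of about 30 µL received 25 nL stock; 0% = median of vehicle wells and 100% = reference inhibitor level; the first replicate is given; inactives centre near 10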
* = called active by the depositor. These rows are one share of the data; count on the stated rates, not on these rows.

Structure,NOMO-1 viab
N=c1ccccn1CC(O)c1ccccc1 (configuration not stated),11.4
C[C@@H]1CN([C@@H](C)CO)C(=O)Cc2cc(NC(=O)Nc3ccc(C(F)(F)F)cc3)ccc2O[C@@H]1CN(C)CC1CCCCC1,104.1*
Cc1cccc(-n2c3c(c(=O)[nH]c2=S)C(NC(=O)CN2CCCC2=O)(C(F)(F)F)C(=O)N3)c1 (configuration not stated),6.5
COc1ccc(S(=O)(=O)Nc2ccc3c(c2)CC(=O)N([C@@H](C)CO)C[C@H](C)[C@H](CN(C)Cc2ccc(C(=O)Nc4ccccc4N)cc2)O3)cc1,140.4*
C[C@H](CO)N1C[C@H](C)[C@H](CN(C)Cc2ccccc2)Oc2ccc(NC(=O)Cn3cnnn3)cc2C1=O,4.1
C[C@@H]1CN([C@@H](C)CO)C(=O)c2cccc(NS(=O)(=O)c3ccccc3)c2O[C@@H]1CN(C)CC1CCCCC1,28.5
C[C@H]1CN([C@@H](C)CO)C(=O)c2cc(NC(=O)c3ccncc3)ccc2O[C@H]1CN(C)C(=O)NC1CCCCC1,-15.2
C[C@@H]1CN([C@H](C)CO)C(=O)c2cccc(NC(=O)Nc3cccc4ccccc34)c2O[C@@H]1CN(C)Cc1ccc2c(c1)OCO2,20.8
O=[N+]([O-])c1ccc(OCc2nc(-c3ccncc3)no2)cc1,21.0
COc1ccc(S(=O)(=O)Nc2ccc3c(c2)CC(=O)N([C@H](C)CO)C[C@H](C)[C@H](CN(C)S(=O)(=O)c2ccc(C)cc2)O3)cc1,62.9
Nc1nnc(SCC(=O)Nc2ccc(I)cc2)s1,10.4
COc1ccc(C(=O)NCc2ccc(C(=O)O)o2)cc1,-21.9
COc1ccccc1-n1c(SCC(=O)c2ccc3c(c2)CCCC3)nc2ccccc2c1=O,28.6
O=C(CNS(=O)(=O)c1ccccc1)Nc1ccc2c(c1)OCCO2,14.4
Cc1ccc(C)c(NC(=O)CN(c2ccc(C)c(Cl)c2)S(C)(=O)=O)c1,-7.8
C[C@@H]1CCCCO[C@@H](CN(C)Cc2ccccc2)[C@@H](C)CN([C@H](C)CO)C(=O)c2cc(NS(=O)(=O)c3ccccc3)ccc2O1,39.2
Cc1noc(C)c1NC(=O)Nc1ccc2c(c1)CC(=O)N([C@@H](C)CO)C[C@H](C)[C@@H](CN(C)Cc1ccc(Cl)c(Cl)c1)O2,-0.5
C[C@@H]1CN([C@H](C)CO)C(=O)c2cccc(NC(=O)C3CCOCC3)c2O[C@H]1CN(C)Cc1ccc(Cl)c(Cl)c1,30.5
C[C@@H]1CN([C@@H](C)CO)C(=O)c2cc(NS(=O)(=O)c3ccc(F)cc3)ccc2O[C@@H]1CN(C)C,-10.7
COc1ccccc1CCNC(=O)c1cnccn1,4.1
CCOC(=O)c1c(C)noc1-c1ccco1,9.0
COc1cc(Cl)c(C)cc1NC(=O)C1CCC(=O)N1S(=O)(=O)c1ccc(C)cc1 (configuration not stated),-3.5
CC(C)NC(=O)Nc1cccc2c1O[C@@H](CN(C)C(=O)Nc1cccc3ccccc13)[C@@H](C)CN([C@@H](C)CO)C2=O,9.3
Cn1nnnc1SCC(=O)Nc1ncccn1,13.5
O=C(CSc1ncccn1)Nc1cccc2ccccc12,29.1
Cc1noc(C)c1NC(=O)N(C)C[C@@H]1Oc2c(NC(=O)c3cnccn3)cccc2C(=O)N([C@H](C)CO)C[C@@H]1C,10.5
C[C@@H]1CN([C@@H](C)CO)C(=O)Cc2cc(NS(=O)(=O)c3ccccc3)ccc2O[C@@H]1CN(C)Cc1ccc(C(F)(F)F)cc1,11.5
COc1ccc(NC(=O)N(C)C[C@@H]2Oc3c(NC(=O)Nc4cccc5ccccc45)cccc3C(=O)N([C@H](C)CO)C[C@H]2C)cc1,-1.5
Cc1ccc(S(=O)(=O)N(C)C[C@@H]2Oc3ccc(NC(=O)Nc4ccc(F)cc4)cc3C(=O)N([C@H](C)CO)C[C@@H]2C)cc1,64.5
C[C@H]1CN([C@@H](C)CO)C(=O)c2cccc(NC(=O)c3cnccn3)c2O[C@H]1CN(C)S(=O)(=O)c1ccc(Cl)cc1,9.4
CC(=O)c1cccc(NC(=O)CSc2nc(-c3ccccc3)c(-c3ccccc3)o2)c1,48.5
CCC(=O)Nc1ccc(Br)cc1-c1nnc(SC)[nH]c1=O,4.7
C[C@H]1CN([C@@H](C)CO)C(=O)Cc2cc(NC(=O)CCN3CCOCC3)ccc2O[C@@H]1CN(C)Cc1ccc(C(F)(F)F)cc1,2.4
Cc1cc(NS(=O)(=O)c2ccc(NC(=O)c3oc4cc(C)c(C)cc4c3C)cc2)nc(C)n1,2.6
Cc1ccc(NC(=O)c2oc3ccccc3c2NC(=O)Cc2coc3ccc(C)cc23)cc1,18.8
COC(=O)c1c(-c2ccc(OC)c(OC)c2)csc1NC(=O)COc1ccccc1,44.3
Cc1cc(C)c(S(=O)(=O)N(C)CC(=O)Nc2ccc3c(c2)OCCO3)c(C)c1,0.5
CCCCCC(O)c1cccc(OCc2ccc3ccccc3n2)c1 (configuration not stated),3.2
Cc1ccc(NC(=O)Cn2cnc3sc(C(=O)Nc4ccccc4)c(C)c3c2=O)cc1,-3.9
COc1ccc(S(=O)(=O)N(C)C[C@@H]2OCCCC[C@@H](C)Oc3ccc(N(C)C)cc3C(=O)N([C@H](C)CO)C[C@@H]2C)cc1,14.4
CCc1c(O)nc(SCC(=O)N(c2ccccc2)c2ccccc2)[nH]c1=O,30.3
C[C@@H]1CN([C@H](C)CO)C(=O)c2cccc(NS(=O)(=O)c3cn(C)cn3)c2O[C@H]1CN(C)Cc1ccc(C(F)(F)F)cc1,-1.7
C[C@H]1CN([C@@H](C)CO)C(=O)c2cc(NC(=O)NC3CCCCC3)ccc2O[C@@H]1CN(C)S(=O)(=O)c1ccccc1,2.1
COc1ccc(NC(=O)N(C)C[C@@H]2Oc3ccc(NC(=O)Nc4c(C)noc4C)cc3CC(=O)N([C@H](C)CO)C[C@H]2C)cc1,-15.7
COc1ccc(C(NC(=O)c2ccccc2)c2ccc3cccnc3c2O)c(OC)c1 (configuration not stated),109.0*
C[C@H](CO)N1C[C@H](C)[C@@H](CN(C)Cc2ccc3c(c2)OCO3)Oc2c(NS(=O)(=O)c3cn(C)cn3)cccc2C1=O,-0.5
CCCN(C)C[C@@H]1OCCCC[C@@H](C)Oc2ccc(NC(=O)CCC(F)(F)F)cc2C(=O)N([C@H](C)CO)C[C@@H]1C,6.5
CCOC(=O)c1ccccc1NC(=O)COc1ccc(C)cc1C(C)(C)C,44.5
Cc1ccc(C(=O)CSc2nnc(N)s2)c(C)c1,20.5
C[C@@H]1CN([C@H](C)CO)C(=O)c2cccc(NC(=O)Nc3ccc4c(c3)OCO4)c2O[C@@H]1CN(C)Cc1ccc(Oc2ccccc2)cc1,32.4

New compounds follow:
Structure,NOMO-1 viab
CC(C)(C)c1ccc(OCc2nnc(Sc3ccc([N+](=O)[O-])cn3)n2-c2ccccc2)cc1,108.9*
COc1ccc(S(=O)(=O)N(C)C[C@H]2Oc3c(NC(=O)C4CCOCC4)cccc3C(=O)N([C@@H](C)CO)C[C@@H]2C)cc1,23.2
Cc1ccc(S(=O)(=O)N(C)C[C@H]2Oc3c(NC(=O)Nc4ccc(C(F)(F)F)cc4)cccc3C(=O)N([C@H](C)CO)C[C@@H]2C)cc1,59.4
C[C@H]1CN([C@@H](C)CO)C(=O)c2cccc(N(C)C)c2O[C@@H]1CN(C)C(=O)Nc1ccc2c(c1)OCO2,-21.4
COc1cccc(NC(=O)C(C)N(c2ccc(C)c(C)c2)S(C)(=O)=O)c1 (configuration not stated),16.4
CN(CCOC(=O)c1ccc(Cl)cc1)c1ncc(C(F)(F)F)cc1Cl,-6.2
COc1ccc(NC(=O)N(C)C[C@H]2OCCCC[C@@H](C)Oc3ccc(NC(=O)Cc4ccccc4)cc3C(=O)N([C@H](C)CO)C[C@@H]2C)cc1,10.7
CC(C)NC(=O)N(C)C[C@H]1Oc2ccc(NC(=O)NC3CCCCC3)cc2CC(=O)N([C@@H](C)CO)C[C@H]1C,8.0
CCC1(CC)COC2(OC1)C(=O)Nc1ccc(F)cc12,17.8
C[C@@H]1CN([C@@H](C)CO)C(=O)c2cccc(NC(=O)Nc3ccccc3)c2O[C@H]1CN(C)S(=O)(=O)c1cccs1,-8.1
C[C@H](CO)N1C[C@H](C)[C@H](CN(C)C(=O)NC2CCCCC2)Oc2ccc(NS(=O)(=O)c3cn(C)cn3)cc2CC1=O,-2.7
COc1ccc(NC(=O)N(C)C[C@@H]2Oc3c(NC(=O)NC4CCCCC4)cccc3C(=O)N([C@H](C)CO)C[C@@H]2C)cc1,24.6
Cc1noc(C)c1NC(=O)N(C)C[C@@H]1Oc2ccc(NC(=O)Nc3cccc4ccccc34)cc2C(=O)N([C@H](C)CO)C[C@@H]1C,-17.7
O=C(O)C1CCCCC1C(=O)Nc1ccc(C(=O)N2CCCCC2)c(Cl)c1 (configuration not stated),-8.2
O=C(CCN1C(=O)c2ccc([N+](=O)[O-])cc2C1=O)Nc1ccccc1I,8.3
CC(C)NC(=O)Nc1ccc2c(c1)C(=O)N([C@H](C)CO)C[C@@H](C)[C@@H](CN(C)C(=O)Nc1cccc3ccccc13)O2,-2.1
C[C@@H]1CN([C@H](C)CO)C(=O)c2cc(NS(=O)(=O)c3ccccc3)ccc2O[C@H]1CN(C)S(=O)(=O)c1ccc(F)cc1,-8.1
C[C@H](CO)N1C[C@H](C)[C@H](CN(C)Cc2ccc(Oc3ccccc3)cc2)Oc2c(NC(=O)c3cnccn3)cccc2C1=O,21.1
Cc1ccccc1-c1nc(C#N)c(NCCN2CCOCC2)o1,27.6
COc1ccc(OC)c(C2C(C(=O)c3ccco3)C(=O)C(=O)N2CCN2CCOCC2)c1 (configuration not stated),-9.6
COc1ccc(C(=O)NCC(=O)Nc2cc(OC)ccc2OC)cc1,13.3
C[C@H]1CN([C@@H](C)CO)C(=O)Cc2cc(NS(=O)(=O)c3ccccc3)ccc2O[C@H]1CN(C)C(=O)Nc1ccc(F)cc1,-13.1
Cc1ccc(S(=O)(=O)N(C)C[C@@H]2Oc3c(NC(=O)NC4CCCCC4)cccc3C(=O)N([C@H](C)CO)C[C@H]2C)cc1,13.5
Cn1c(=O)c2[nH]c(NCCN3CCOCC3)nc2n(C)c1=O,-6.3
Cc1noc(C)c1NC(=O)N(C)C[C@@H]1Oc2ccc(NS(C)(=O)=O)cc2C(=O)N([C@H](C)CO)C[C@@H]1C,1.2
COc1ccc(NC(=O)N(C)C[C@H]2Oc3c(NS(=O)(=O)c4ccc(C)cc4)cccc3C(=O)N([C@H](C)CO)C[C@H]2C)cc1,6.8
C[C@H]1CN([C@@H](C)CO)C(=O)c2cccc(NS(=O)(=O)c3ccc(Cl)cc3)c2O[C@@H]1CN(C)S(=O)(=O)c1cn(C)cn1,18.6
Cc1ccccc1NC(=O)c1cccc(Cn2cc(C(F)(F)F)ccc2=O)c1,10.3
CC(C)NC(=O)Nc1ccc2c(c1)CC(=O)N([C@H](C)CO)C[C@@H](C)[C@@H](CN(C)Cc1ccncc1)O2,-16.1
C[C@@H]1CCCCO[C@@H](CN(C)C(=O)Cc2ccccc2)[C@@H](C)CN([C@H](C)CO)C(=O)c2cc(NC(=O)Nc3ccc4c(c3)OCO4)ccc2O1,-3.5
Cc1cc(C)c2c3c1C1C=CCC1CN3C(C(=O)O)C1CC=CC21 (configuration not stated),115.0*
COc1ccc(S(=O)(=O)N(C)C[C@@H]2Oc3ccc(NC(=O)Cc4cn(C)c5ccccc45)cc3CC(=O)N([C@H](C)CO)C[C@H]2C)cc1,19.2
COc1ccc(S(=O)(=O)N(C)C[C@H]2Oc3ccc(NS(=O)(=O)c4ccc(Cl)cc4)cc3C(=O)N([C@H](C)CO)C[C@H]2C)cc1,25.7
C[C@H]1CN([C@@H](C)CO)C(=O)Cc2cc(NS(=O)(=O)c3ccc(Cl)cc3)ccc2O[C@@H]1CN(C)CC1CC1,9.4
COc1ccc(CN(C)C[C@@H]2OCCCC[C@@H](C)Oc3ccc(NS(=O)(=O)c4cccs4)cc3C(=O)N([C@H](C)CO)C[C@@H]2C)cc1,32.8
CC(=O)Oc1ccc2ccc3ccc(OC(C)=O)c4ccc1c2c34,126.8*
C[C@@H]1CCCCO[C@@H](CN(C)C(=O)CCC(F)(F)F)[C@@H](C)CN([C@H](C)CO)C(=O)c2cc(NS(=O)(=O)c3ccc(Cl)cc3)ccc2O1,34.3
CCC(C)NC(=O)c1ccc(N(CC)CC)cc1 (configuration not stated),27.6
Cc1ccc(S(=O)(=O)N(C)C[C@H]2Oc3c(NC(=O)C4CCOCC4)cccc3C(=O)N([C@H](C)CO)C[C@@H]2C)cc1,-10.3
Cc1noc(C)c1S(=O)(=O)Nc1ccc2c(c1)CC(=O)N([C@@H](C)CO)C[C@H](C)[C@H](CN(C)CC1CC1)O2,-11.9
